# Screening data: PubChem, Fisher Drug Discovery Resource Center
# NPYLR7 agonist = mosquito NPYLR7 agonism; activation, % at 10 µM; 270,000 compounds, 0.15% hits; AID 1259423; HEK293T NPYLR7/Galpha15, GCaMP6s calcium fluorescence; in the data active = activation above about 40%;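 note: 0% = vehicle and 100% = reference agonist at the receptor; some compounds past the cut are filed as inactive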
# NPYLR7 agonist max-min = recorded beside NPYLR7 agonist, whose call it bears; activation, %; measured here: Max-Min RFU normalised activation; some inactives read as strong as hits;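 span of the calcium signal over five minutes; 0% = vehicle and 100% = native peptide agonist; compound fluorescence can raise it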
# The depositor's hits bear a star. An excerpt (hit frequency here may not be typical).
SMILES,NPYLR7 agonist,NPYLR7 agonist max-min
CCSc1nc(CC(=O)N2CC[C@H]3CC[C@@H](C2)N3)cs1,19,7
CCc1nc2n(n1)C(=O)C(C(c1ccc(Cl)c(Cl)c1)N1CCN(CCO)CC1)S2 (stereo unspecified),-1,-4
CC(=O)n1cc(/C=C2/C(=O)NC(=O)N(c3ccccc3C)C2=O)c2ccccc21,-6,-10
Cc1nonc1CN(C)c1ncnc2sc3c(c12)CCNC3,0,21
CCc1csc(CNC(=O)c2ccc(-c3ncn[nH]3)cc2)n1,-5,-9
COc1ccc(CN(C(=O)OC(C)(C)C)C2CCC(C(=O)N3CCOC(Cc4ccccc4)C3)CC2)cc1C (stereo unspecified),3,2
Cc1cccc(N2CCN(Cn3nc(-c4cccs4)oc3=O)CC2)c1,11,6
CC1(C(=O)NCc2cccs2)CCN1C(=O)c1ccccc1CCc1ccccc1 (stereo unspecified),8,6
COc1cc(F)ccc1-c1c(-c2ccccc2)ncn1CC1CCOCC1,15,7
C=CCn1c(=S)sc2c(=O)[nH]cnc21,-5,1
Cc1cc(C)c(N2CC(c3nc4ccccc4n3C(C)C)CC2=O)c(C)c1 (stereo unspecified),-2,14
CC1=C(C(=O)OC2CCCC(C)C2)C(c2cc3c(cc2Br)OCO3)NC(=O)N1 (stereo unspecified),2,-3
C=C1CCC(OC(C)=O)/C(C)=C/C[C@@H]2[C@@H]1CC2(C)C (stereo partly specified),-9,-17
O=C1NC2=C(C(=O)N(CCO)C2)C(c2ccc(F)cc2)N1 (stereo unspecified),6,16
O=C(Nc1ccccc1Nc1ccccc1)c1cccnc1Oc1ccc(Cl)cc1,-22,-33
COc1ccc(Cn2ccnc2CN(C(=O)c2ccco2)c2ccccc2)cc1,-1,1
c1ccc2c(c1)NC1=C3OC[C@@H](O3)[C@H](C1)N2,1,26
CN(C)c1ccc(/C(=N\O)C(F)(F)F)cc1,-1,1
CN1CCC(C)(Cn2ccnc2-c2cnc[nH]2)C1 (stereo unspecified),3,2
O=[N+]([O-])c1ccc2nc(-c3ccco3)c(-c3ccco3)nc2c1,8,7
CC(C)c1noc(C2CCCN2Cc2cn[nH]c2-c2ccc(F)cc2)n1 (stereo unspecified),3,7
CCOc1ccc(CCNC(=O)C2CC3(CCNCC3)CN2)cc1 (stereo unspecified),5,5
COc1ccc(S(=O)(=O)NCc2nnc(SCc3ccccc3C)n2-c2ccc(Cl)cc2Cl)cc1,7,13
COc1cc(NC(=O)c2cc(Cl)sc2Cl)c(C(N)=O)cc1OC,9,5
CCOc1nn(CC)cc1C(=O)Nc1ccc(C(N)=O)cc1,-11,-16
O=C(COc1coc(CN2CCc3ccccc32)cc1=O)c1ccccc1,4,3
COCC(=O)N1CCN(C(C(=O)NCc2ccncc2)C2CCCC2)CC1 (stereo unspecified),-5,2
CCC(C)C(C)N(C(=O)c1cc(S(C)(=O)=O)ccc1C)C1CC1 (stereo unspecified),4,3
CCC(C)NC(=O)CCN(c1nc(-c2cccs2)nc2ccccc12)C1CC1 (stereo unspecified),34,45
CN(Cc1ccc2nonc2c1)C(=O)c1cn(Cc2c(F)cccc2F)nn1,16,14
O=C(CCC1CCCN(C(=O)CCc2ccccc2Cl)C1)NC1CC1 (stereo unspecified),8,4
CNc1nc2cnc(Nc3cccc(F)c3)cc2n1Cc1ccccc1,9,-2
O=C(C1CCCO1)N1CCc2ccc(NC(=O)C3(c4ccccc4)CCOCC3)cc21 (stereo unspecified),1,4
Cc1ccc(Cl)cc1-n1c(SCc2nc(C(=O)N3CCC4(CC3)OCCO4)cs2)nnc1-c1ccncc1,-3,6
COc1cccc(Cn2cccc2CN(Cc2ccccc2)C(=O)CN(CC(C)C)S(=O)(=O)c2ccc(Cl)c([N+](=O)[O-])c2)c1,1,11
COc1ccc(-c2noc(C3CC3c3ccco3)n2)cc1 (stereo unspecified),5,1
Cc1ccccc1-n1ncc2c(C)nn(CC(=O)N3CCN(c4ccccc4)CC3)c(=O)c21,5,4
Cc1ccc(-n2c(SCc3nc(C(=O)NCc4ccco4)cs3)nnc2-c2ccncc2)cc1,1,12
CCOc1ccccc1C(=O)Nc1ccc(-c2onc3c2CCc2cc(OC)ccc2-3)cc1,4,1
O=C(Cn1nc2c(c1NC(=O)COc1ccccc1)CSC2)NCc1ccccc1,-5,2
CCN(Cc1ccc(OC)cc1)C(=O)c1cn2c(n1)CNCC2,4,0
COc1ccc(NC(=O)CCn2c(-c3cccc(C)c3)n[nH]c2=S)cc1Cl,9,8
Cc1nc(C(C)Nc2nncc(-c3ccccc3)n2)c(C)s1 (stereo unspecified),-1,-2
N#CC1CCCCC1OC(=O)CCc1nc(C2CC2)no1 (stereo unspecified),-1,-4
COc1ccccc1-c1nc(Cn2nnc(C(=O)Nc3c(C)cccc3C)c2C)c(C)o1,15,4
Cc1nc(C)c(CC(=O)N2CCCC(Nc3ccc4c(c3)OCO4)C2)c(=O)[nH]1 (stereo unspecified),12,10
CC(=O)c1ccc(NC(=O)CSc2ccc(-c3ccc(-n4cccn4)cc3)nn2)cc1,-8,-10
CCc1nn(C)c2c(=O)n(CC(O)c3ccccc3)cnc12 (stereo unspecified),3,1
NNc1ccc(-c2cccc([N+](=O)[O-])c2)nn1,-5,-2
Cc1cc(=O)[nH]c(-n2nc(-c3cccs3)cc2NC(=O)CC(C)(C)C)n1,-2,-3
OCC1(Cc2ccccc2)CCCN(Cc2ccc(F)cc2Cl)C1 (stereo unspecified),0,-1
COc1ccccc1CN1CCC(Nc2ncnc3nc[nH]c23)CC1,0,-5
CCCCn1c(N)c(N(CCC(C)C)C(=O)c2cc(C)oc2C)c(=O)[nH]c1=O,4,5
CC(=O)N1CCC(NCc2cc(Cl)c3c(c2)OCO3)CC1,9,12
CC1(C(=O)NS(=O)(=O)Cc2cccc(Cl)c2)CCN1C(=O)CCc1cccs1 (stereo unspecified),-4,-11
FC(F)(F)c1ccc(-c2noc(CN3CCCC(CN4CCOCC4)C3)n2)cc1 (stereo unspecified),-12,-12
Cc1ccc(-c2cc3c(SCC(=O)NC4CCCC4)nccn3n2)cc1,0,-5
O=C(NCc1ccc(S(=O)(=O)N2CCCC2)s1)c1ccccc1[N+](=O)[O-],17,6
C1COC(COCc2nn3c(C4CC4)nnc3s2)C1 (stereo unspecified),2,-2
CC(C)c1ccccc1NC(=O)C1CC12c1ccccc1-c1ccccc12 (stereo unspecified),-2,-6

# Record cards, as listed above. Screens in order: NPYLR7 agonist	NPYLR7 agonist max-min
# `CC(C)c1noc(C2CCCN2Cc2cn[nH]c2-c2ccc(F)cc2)n1` (stereo unspecified) is listed as 3	7
# `CC(=O)N1CCC(NCc2cc(Cl)c3c(c2)OCO3)CC1` is listed as 9	12

# Next entries follow.
SMILES,NPYLR7 agonist,NPYLR7 agonist max-min
O=C(NCC1Cc2cc(-c3cnccn3)ccc2O1)C1CCCc2c1[nH]c1ccccc21 (stereo unspecified),11,5
CCOc1ccc2ncc(C#N)c(NCc3cccc(Cl)c3)c2c1,-1,-4
C#CCOc1ccccc1CN(C)CC(=O)Nc1c(C)nn(C)c1C,-10,-12
Cc1cccc(C(NC2CCN(C(=O)C(C)C)CC2)c2cccs2)c1 (stereo unspecified),-1,0
CCOC(=O)CNC(=O)CSc1ccc2nnc(-c3ccc(C)cc3)n2n1,8,16
COc1ccc(C(CC(=O)N(C)Cc2ccncn2)c2ccccc2)cc1 (stereo unspecified),3,-1
O=c1[nH]c2ccc(S(=O)(=O)Nc3ccc(N4CCOCC4)cc3)cc2o1,8,3
COC(=O)CNS(=O)(=O)c1ccc(NS(=O)(=O)c2ccc(F)c(F)c2)cc1,-1,7
COC(=O)[C@H]1C[C@@H](O)CCN1S(=O)(=O)c1c(C)cc(OC)c(C)c1C,24,14
Cc1cc(N(C)C)ccc1NC(=O)c1occc1C,-4,-3
CC1CN2C(=O)CN(C(=S)Nc3ccc(OC(F)F)cc3)CC2c2ccccc21 (stereo unspecified),28,9
CC1(C)CC(=O)C2CN(CCCN3CCOCC3)CN=C2C1 (stereo unspecified),8,2
COCCCN(CC(=O)N1CCc2sccc2C1COc1ccccc1F)C(=O)c1ccco1 (stereo unspecified),-3,1
CC(=O)Nc1cccc(NC(=O)Cn2nc(-c3cccs3)c3sc(N4CCCC4)nc3c2=O)c1,-2,-10
COc1ccc(NC(=O)N2CCC3(CC2)C(=O)N(CC(=O)NCc2cccc(C(F)(F)F)c2)CN3c2ccccc2)c(OC)c1,15,12
COc1ccc(CCc2n[nH]c(=S)n2-c2ccccc2)cc1OC,4,5
C=CCNS(=O)(=O)c1cccc(C(=O)N2CCCC(O)(C(F)(F)F)C2)c1 (stereo unspecified),3,-2
Cc1ncccc1OC1(C(=O)N2CC=CC2C(C)C)CCNCC1 (stereo unspecified),-5,-9
Cc1cc(F)ccc1S(=O)(=O)NCCc1csc2nc(-c3ccc(F)cc3)nn12,13,10
Cc1cccc(-n2c(-c3ccc(F)cc3)cc(C(=O)NCc3ccccc3)c2C)c1,-4,0

# Seven of the compounds above, tab-delimited:
molecule	NPYLR7 agonist	NPYLR7 agonist max-min
COCCCN(CC(=O)N1CCc2sccc2C1COc1ccccc1F)C(=O)c1ccco1 (stereo unspecified)	-3	1
COc1ccc(NC(=O)N2CCC3(CC2)C(=O)N(CC(=O)NCc2cccc(C(F)(F)F)c2)CN3c2ccccc2)c(OC)c1	15	12
Cc1cc(N(C)C)ccc1NC(=O)c1occc1C	-4	-3
Cc1cccc(C(NC2CCN(C(=O)C(C)C)CC2)c2cccs2)c1 (stereo unspecified)	-1	0
CC1CN2C(=O)CN(C(=S)Nc3ccc(OC(F)F)cc3)CC2c2ccccc21 (stereo unspecified)	28	9
Cc1cccc(-n2c(-c3ccc(F)cc3)cc(C(=O)NCc3ccccc3)c2C)c1	-4	0
COc1ccc(C(CC(=O)N(C)Cc2ccncn2)c2ccccc2)cc1 (stereo unspecified)	3	-1

# Later entries
SMILES,NPYLR7 agonist,NPYLR7 agonist max-min
Cc1ccc(CN(C)C(=O)Cc2nc(-c3cccnc3)n[nH]2)o1,-1,36
COc1ccc(C2N=C(SC)NC(C)=C2C(=O)OC(C)C)cc1 (stereo unspecified),0,-2
C=CCN1C[C@@H]2C[C@@H](C(=O)OCC)N(C(=O)c3ccno3)c3cccc(c32)C1=O,-1,0
CN(Cc1nc2ccc(F)cc2[nH]1)Cc1nc(-c2cccs2)no1,3,0
Cc1cccc(-c2ncc(CNCCCN3CCOCC3)cn2)c1,3,18
CCc1cccc(N=c2c([N+](=O)[O-])nn(-c3ccc(OC)cc3)n2O)c1,-7,-10
CCOC(=O)C1CCN(C(c2ccc(OC)c(OC)c2)C2Sc3nc(CC)nn3C2=O)CC1 (stereo unspecified),-2,6
C=CCn1c(SCc2ccccc2C)nnc1-c1ccc(F)cc1,-4,5
Cn1cc(C2CN(c3ncccc3S(=O)(=O)N3CCCCC3)CCO2)cn1 (stereo unspecified),1,0
COc1ccccc1-c1cc(C(=O)O)n2nc(-c3ccccc3)cc2n1,-4,1
CC(C)N1CCC(CNC(=O)Nc2ccc3c(c2)OC2(CCCC2)O3)C1 (stereo unspecified),15,11
CCN(C(=O)c1csc(-c2ccc(C)cc2)n1)c1ccccc1,8,5
S=c1[nH]nc(-c2ccccc2Br)o1,1,7
CCOC(=O)N1CCN(CC(=O)N2N=C(c3cccc(C)c3)CC2c2cccc(OC)c2)CC1 (stereo unspecified),28,22
C/C(=N/OC(=O)c1ccccc1C)c1ccc(Cl)cc1Cl,3,1
O=C(NC1CCS(=O)(=O)C1)c1cc([N+](=O)[O-])cc([N+](=O)[O-])c1 (stereo unspecified),-2,-6
Cc1c(Br)c(C(F)(F)F)nn1CC(=O)N1CCOCC1,13,20
O=c1oc(-c2ccc(C(F)(F)F)cc2)nn1Cc1cc(Cl)ccc1O,-13,-16
CN1CCCC(C)(C(=O)NCc2cc(F)ccc2F)C1 (stereo unspecified),1,0
CCN(CC(=O)NC)S(=O)(=O)c1cc(Br)ccc1F,9,8

# Random excerpt: two records from the list
SMILES,NPYLR7 agonist,NPYLR7 agonist max-min
C=CCn1c(SCc2ccccc2C)nnc1-c1ccc(F)cc1,-4,5
CCN(C(=O)c1csc(-c2ccc(C)cc2)n1)c1ccccc1,8,5

# Following part:
SMILES,NPYLR7 agonist,NPYLR7 agonist max-min
COCC(=O)Nc1cccc(-n2nc(OC(C)C)nc2-c2ccccc2F)c1,-16,-12
Cc1ccc(S(=O)(=O)OCC2CCCO2)cc1 (stereo unspecified),8,11
O=C(NCc1ccc2c(c1)OCO2)c1ccccc1NS(=O)(=O)c1ccc(OC(F)(F)F)cc1,2,-5
CN1CCN(Cc2ccc(-n3cccn3)cc2)CC1C(=O)O (stereo unspecified),10,8
O=C(NCCN1CCCc2ccccc21)[C@@H]1C[C@@H]2C=C[C@H]1C2,-2,-3
Cc1ccc(OCc2ccc(-c3nc(C#N)c(NCc4ccco4)o3)o2)cc1,0,15
O=C(CC1CC1)NC1CCc2[nH]c3ccc(Cl)cc3c2C1 (stereo unspecified),12,7
Cn1ccn2ncc(C(=O)NCc3ccncc3)c12,12,12
O=[N+]([O-])c1cccc(/C=C/c2nc(C=Nc3ccc(O)cc3)c(O)o2)c1,-1,3
CCc1ccccc1NC(=O)CN(C)C(=O)C1CCN(C(=O)c2ccc(F)cc2F)CC1,2,0
CCOc1ccc(C(=O)Nc2ccc3oc(-c4cccc(I)c4)nc3c2)cc1[N+](=O)[O-],10,9
COc1cc(C)c(CN2CCN(C(=O)C3=COCCO3)CC2)cc1OC,9,7
CC(C)CN1C(=O)CC(Sc2ncccc2C(=O)O)C1=O (stereo unspecified),1,29
COC(=O)c1cc(CN2CCN(Cc3cccc(F)c3)CC2)cs1,5,4
CC/C(=C/C(=O)O)c1ccc(C)cc1,6,3
